NS1 inh = blocks influenza NS1 protein function | S. cerevisiae slowed by influenza A NS1, growth recovery by OD600 | Potency, µM (titrated, usually from 46.1 µM), inactives show at the highest dose activity, positive = more growth | 0.4% of 270,000 active; active means well fitted rising curve with a large enough effect; inconclusive means small, poorly fitted or top-dose-only effect; inactive means no such curve, though single readings can be large or run the other way; also: nearly all actives have a fitted effect of over 50% in size
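Read-out: OD600 growth recovery of NS1-expressing budding yeast. Cells grown overnight at 30C in -URA glucose medium, washed, resuspended and diluted 1:100 in 2% galactose assay medium, pH 6.0. Same strain lacking NS1 served as positive control.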
Cruzain Triton = cruzain (T. cruzi) inhibition with detergent; P25779; purified cruzain, Z-FR-AMC fluorescence, 0.01% Triton; Potency, µM, for inactives: max response, negative = inhibition, actives largely listed as inhibitors; 0.43% of 200,000 active;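 also: plate controls were neutral wells for no effect and buffer without enzyme for full effect; nearly all actives have a fitted effect of over 40% in size; top concentration of the series not given in the record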
Target sequence (P25779 123-467 limits assumed): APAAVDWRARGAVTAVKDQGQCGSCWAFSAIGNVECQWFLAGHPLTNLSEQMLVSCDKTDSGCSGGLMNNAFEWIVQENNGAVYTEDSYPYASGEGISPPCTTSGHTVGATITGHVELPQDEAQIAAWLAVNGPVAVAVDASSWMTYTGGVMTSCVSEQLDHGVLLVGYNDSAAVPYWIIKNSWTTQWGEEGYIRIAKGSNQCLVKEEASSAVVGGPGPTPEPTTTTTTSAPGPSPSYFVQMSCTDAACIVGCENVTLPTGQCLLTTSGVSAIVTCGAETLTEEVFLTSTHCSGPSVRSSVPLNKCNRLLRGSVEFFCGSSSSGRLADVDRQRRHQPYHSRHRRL
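Steps: dispense cruzain (1.5 nM final) in acetate buffer pH 5.5 with DTT and 0.01% Triton X-100; pin-transfer compounds; incubate 15 min RT; add Z-FR-AMC (2 uM final); read fluorescence every 30 s, using the 60 s intensity change.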
RE007 growth inh = less growth of the S. pombe RE007 Vpr strain | S. pombe RE007 Vpr strain, BacTiter-Glo ATP luminescence, 24 h; control for the full effect not named in the record | Potency, µM (series often up to 92.2 µM), for the others: at the highest dose activity change, negative = less growth | 0.21% of 360,000 active; active = well fitted falling curve with a large enough effect; inconclusive = small, poorly fitted or top-dose-only effect; inactive = no such curve, though single readings can be large or run the other way;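 also: % is scaled to controls: 0 for no effect and ±100 for the full control effect; nearly all actives have a fitted effect of over 50% in size; the assay follows cell death caused by Vpr and the record does not say whether a fall means rescue or toxicity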
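Fission yeast strain RE007, carrying one chromosomally integrated HIV-1 vpr copy, was seeded at OD 0.01 in PMG+AL medium with 23 nL pinned compound. After 24 h at 30 °C and 99% humidity, viability was read by BacTiter-Glo luminescence.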
MARV entry inh = blocks Marburg virus binding to or entry into cells. Potency, µM (top dose mostly 37.8 µM), for the others: top-dose activity change, negative = inhibition, usual class: inhibitors. 1.8% of 300,000 active. Marburg virus pseudotyped entry inhibition, cell reporter; control for the full effect not named in the record; about a third of the inactives were read at about 46 µM; active = well fitted inhibition curve with a large enough effect; inconclusive = small, poorly fitted or top-dose-only effect, or effect the other way; inactive = flat fitted curve, though single readings scatter; tested in HEK293 cells; about a fifth of its hits are not listed in these tables; also: % is scaled to controls: 0 for no effect and ±100 for the full control effect; luciferase read-out
Lassa entry inh = blocks Lassa virus binding to or entry into cells. Lassa virus pseudotype entry inhibition, cell reporter; control for the full effect not named in the record. Potency, µM (titrated, usually from 37.9 µM), for the others: top-dose activity change, negative = inhibition, actives largely listed as inhibitors. 1.2% of 300,000 active; active means well fitted inhibition curve with a large enough effect; inconclusive means small, poorly fitted or top-dose-only effect, or effect the other way; inactive means flat fitted curve, though single readings scatter; tested in HEK293 cells; also: % is scaled to controls: 0 for no effect and ±100 for the full control effect; nearly all actives have a fitted effect of over 50% in size; luciferase read-out
2A StopGo = FMDV 2A StopGo reporter, luciferase signal; Potency, µM (titrated, usually from 57.9 µM), inactives show at the top dose signal change, negative = less light; human cells with a luciferase reporter of 2A StopGo recoding; control for the full effect not named in the record; 1.2% of 410,000 active; AID 1159524; active = well fitted falling curve with a large enough effect; inconclusive = small, poorly fitted or top-dose-only effect; inactive = no such curve, though single readings can be large or run the other way; tested in HEK293T cells; also: % is scaled to controls: 0 for no effect and ±100 for the full control effect; nearly all actives have a fitted effect of over 45% in size; luciferase light after 4 h
Cruzain inh noDet = blocks cruzain activity in detergent-free assay; 2.3% of 200,000 active; P25779; AID 1476; purified cruzain, Z-FR-AMC fluorescence, no detergent; Potency, µM, inactives show max response, negative = inhibition, hits mostly inhibitors;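 also: plate controls were enzyme without inhibitor for no effect and buffer without enzyme for full effect; nearly all actives have a fitted effect of over 40% in size; top concentration of the series not given in the record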
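Purified cruzain at 1.5 nM, pre-incubated 15 min with compound at room temperature in 100 mM sodium acetate pH 5.5, 5 mM DTT, 0.00005% Triton X-100. Reaction started with 2 uM Z-FR-AMC; AMC fluorescence increase over 60 s gives rate.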
SARS PLpro yeast = inhibitors of SARS-CoV papain-like protease in yeast; 0.19% of 330,000 active; S. cerevisiae expressing SARS-CoV PLpro, growth rescue; control for the full effect not named in the record; Potency, µM (series often up to 32.9 µM), inactives show top-dose activity, positive = growth rescue; active means well fitted rising curve with a large enough effect; inconclusive means small, poorly fitted or top-dose-only effect; inactive means no such curve, though single readings can be large or run the other way; also: 0% is about no effect; nearly all actives have a fitted effect of over 55% in size; growth read by luminescence after 48 h
The depositor's hits bear a star; ? = inconclusive; · = not tested or not shown; [ ] = remark or other dose. Unless noted, calls follow the shape of the dose curve; as a rule, active = well fitted curve in the direction sought with a large enough effect; inconclusive = small, poorly fitted or top-dose-only effect, or another doubt; inactive = no such curve, though single readings can be large; an effect the other way counts as inactive or inconclusive. Potency is read from the fitted curve at half-maximal effect.

molecule	NS1 inh	Cruzain Triton	RE007 growth inh	MARV entry inh	Lassa entry inh	2A StopGo	Cruzain inh noDet	SARS PLpro yeast
O=C1CN(C(=O)COc2ccc(Cl)cc2)C(c2ccc(F)cc2)c2cc(Cl)ccc2N1 (stereo not given)	·	-8.5%	·	?	?	-19%	?	·
COc1cc(CNn2cn[nH]c2=S)cc(Cl)c1OCc1ccc(F)cc1	-4%	-9.6%	8%	11%	?	?	-4%	15%
COc1ccccc1C(=O)NC(=S)Nc1cccc2cc(O)ccc12	·	·	-8%	-25%[46.1 µM]	?	1%	·	·
COc1ccc(OC)c(NC(=O)CC(=O)Nc2ccc3nc4n(c(=O)c3c2)CCCCC4)c1	·	-6.8%	·	-4%[46.1 µM]	-1%[46.1 µM]	-23%	?	·
Cc1c2ccccc2cc[n+]1CCCS(=O)(=O)[O-]	·	·	13%	0%[46.1 µM]	16%[46.1 µM]	-10%	·	0%
O=c1onc(-c2ccc(Cl)cc2Cl)n1-c1cccnc1	0%	·	0%	8%	-4%	-15%	·	1%
Cc1ccc(C2C(=O)NC(=O)NC2=O)cc1	·	·	-8%	-15%[46.1 µM]	0%	16%	·	·
COCCn1c(SCC(=O)Nc2ccc(Br)cc2)nc2c([nH]c3ccccc32)c1=O	·	0.9%	·	·	-26%[46.1 µM]	1%	3%	·
CCn1c(SCC(=O)NCCCN2CCCC2=O)nnc1-c1cccc(C)c1	·	·	6%	-8%	1%	-13%	·	-1%
C[C@]12CCC3C(CC=C4C[C@@H](O)CC[C@@]43C)C1CCC2[C@]1(C)CCC(=O)O1 (stereo not given in full)	0%	0.0%	-7%	-3%	-1%	-3%	?	1%
COc1ccc(CNC(=O)CCCC(=O)Nc2cccc(Br)c2)cc1	-14%	·	-2%	-8%	-8%	-10%	·	1%
O=C(COc1ncnc2cc([N+](=O)[O-])ccc12)NC1CCCCC1	-4%	·	-14%	·	·	-15%	·	0%
CC(=O)Nc1nonc1-c1nc2ccccc2n1CC1CC1	2%	7.6%	-1%	?	-32%	-20%	-10%	2%
C[C@H]1CN=C2N(CCNC(=O)CCC3CCCCC3)[C@H](Cc3ccc(O)cc3)CN21	1%	·	-15%	·	·	-11%	·	1%
CCC(Sc1nc(C)cc(=O)[nH]1)C(=O)Nc1nc(-c2ccccc2)cs1 (stereo not given)	14%	-5.6%	-11%	4%	-12%	-10%	25%	-1%
CCOc1ccccc1N1CCN(c2ncnc3scc(-c4ccc(OC)cc4)c23)CC1	-2%	·	0%	?	-5%[46.1 µM]	?	·	5%
Cc1ccc2c(C)nc(N/C(N)=N/S(=O)(=O)c3ccc([N+](=O)[O-])cc3)nc2c1	-7%	-4.7%	-3%	-19%	1%	11%	?	-3%
O=C(Nc1cccc(S(=O)(=O)N2CCCCC2)c1)C1CC(=O)N(Cc2ccco2)C1 (stereo not given)	·	·	-14%	14%[46.1 µM]	-12%	-20%	·	1%
CCc1ccc(-c2nc(CN3CCC(C(=O)NCCc4ccc(Cl)cc4)CC3)c(C)o2)cc1	·	-0.1%	·	1%[46.1 µM]	0%[46.1 µM]	?	-2%	·
COc1ccc(-c2nnc(OCc3ccccc3)c3ccccc23)cc1	-13%	-5.9%	9%	?	?	?	13%	-25%
O=C(CCn1c(=O)c2cccn2c2ccc(F)cc21)NCCc1ccc(Cl)cc1	·	-5.9%	·	·	-11%[46.1 µM]	-14%	10%	·
Cc1cc(C)n2cc(CSc3ncccc3C(=O)O)nc2n1	-1%	1.0%	10%	6%	1%	-1%	-2%	-9%
O=C(O)/C=C/C(=O)N1CCN(C(=O)/C=C/C(=O)O)CC1	4%	-2.6%	8%	12%	-23%	-15%	0%	-13%
CC(=O)N1N=C(c2ccco2)CC1c1ccc(Br)cc1 (stereo not given)	3%	0.3%	4%	3%	1%	18%	-11%	5%
COc1ccc(C(=O)NC2CC3CCCC(C2)N3CC(C)C)cc1 (stereo not given)	19%	·	2%	?	4%	1%	·	-3%
COc1ccc(OC)c(NC(=O)Cn2c(CCC(=O)O)ccc2-c2cccs2)c1	-4%	-6.3%	10%	-2%	10%	-25%	?	·
O=C(O)c1ccc(N/N=C/c2cn(-c3ccccc3)nc2-c2cccs2)cc1	·	·	?	4.5µM*	5µM*	-27%	·	-17%
O=C(Cc1c[nH]c2ccccc12)Nc1ccccc1N1CCOCC1	-10%	·	6%	?	-28%[46.1 µM]	-7%	·	-2%
Cc1ccc(CS(=O)(=O)CCC(=O)NCCN2CCCCC2C)cc1 (stereo not given)	?	6.9%	-9%	18%	?	0%	-3%	-1%
CCn1c2ccccc2c2cc(CN3CCN(Cc4ccccc4F)CC3)ccc21	·	7.5%	·	·	?	8%	?	·
CN(CCC#N)C(=O)COC(=O)c1nn(-c2ccccc2)c(=O)c2ccccc12	·	·	-6%	6%[46.1 µM]	10%[46.1 µM]	-1%	·	0%
CC(=O)N(c1ccc(C(C)C)cc1)C1C=CS(=O)(=O)C1 (stereo not given)	-2%	5.7%	25%	-18%	7%	-17%	4%	6%
CCOC(=O)c1sc(-c2ccccc2)cc1N	-11%	-12%	-22%	25%	20%	57%[activator]	-8%	-13%
O=C(Cc1ccccc1)NNC(=O)Nc1ccccc1	2%	·	2%	8%	10%	34%[activator]	·	1%
Cc1nn2cc(-c3ccc(Cl)cc3)nc2s1	-3%	4.5%	-3%	?	?	22%	?	1%
COc1cccc(CNS(=O)(=O)c2ccc3c(c2)N(C(C)=O)CCS3)c1	7%	·	-2%	·	·	6%	·	-2%
CCOc1ccccc1NC(=O)Cn1c(=O)n(Cc2ccccc2)c(=O)c2c(C)c(C)sc21	·	-0.4%	·	-12%[46.1 µM]	4%[46.1 µM]	-17%	-9%	·
C=CCn1c(-c2cccs2)nc2nc3ccccc3nc21	-71%	-22%	0%	8%	2%	-13%	?	-4%
O=C(CCNS(=O)(=O)c1ccccc1)Nc1ccccc1	3%	·	-5%	·	·	2%	·	-8%
Cc1cc(C)n(-c2nc3ccccc3nc2Nc2ccc(N(C)C)cc2)n1	·	-0.9%	·	9%[46.1 µM]	8%[46.1 µM]	-7%	-2%	·
COc1cccc(NC(=O)CNS(=O)(=O)c2ccc(Cl)cc2)c1	-6%	-0.7%	3%	21%	?	-2%	1%	20%
CCOc1ccc(/C(O)=C2/C(=O)C(=O)N(CCOCCO)C2c2cccnc2)cc1 (stereo not given)	2%	-4.9%	13%	3%	0%	9%	-1%	3%
O=C(NCCCN1CCOCC1)c1c(O)c2cc(Br)cc(Br)c2[nH]c1=O	-32%	0.9%	-10%	-4%	-1%	0%	-8%	0%
Nc1c(-c2ccccc2)cnn1-c1cccc(Cl)c1	-10%	·	?	?	?	38%[activator]	·	-4%
CCOC(=O)C1CCN(C(=O)Nc2ccc3nc(C)c(C)nc3c2)CC1	-7%	-2.9%	3%	18%	-1%	-1%	-3%	2%
CCn1cc(S(=O)(=O)NCCc2ccc(OC)c(OC)c2)cn1	2%	·	1%	·	·	-6%	·	3%
CCNc1nc(Oc2ccc(OC)cc2)cc(C(F)(F)F)n1	-3%	·	13%	?	?	-22%	·	2%
COc1cccc(CNC(=O)Cn2ncc3c(=O)oc4ccccc4c32)c1	-1%	-2.0%	-3%	?	-15%	?	3%	2%
Cc1ccc(S(=O)(=O)N2CCc3cc(C(=O)N(C)Cc4ccccc4)ccc32)cc1	·	-4.9%	·	2%[46.1 µM]	-21%[46.1 µM]	-20%	5%	·
COC(=O)c1sccc1NC(=O)Cc1ccc(OC)c(OC)c1	-3%	-6.6%	12%	?	?	0%	-12%	16%
Nc1cc(=O)[nH]c(SCC(=O)Nc2cccc(S(=O)(=O)N3CCCCC3)c2)n1	·	·	-2%	16%[46.1 µM]	?	-12%	·	0%
CC(C)Cn1c(N)c(C(=O)CSc2nnnn2C)c(=O)n(C)c1=O	-3%	1.3%	5%	1%	1%	?	1%	-3%
Cc1noc(C)c1CSc1nnc(-c2c[nH]c3ccccc23)n1-c1ccc(Cl)cc1	-7%	3.4%	-5%	?	?	-22%	-8%	-10%
NCCNC[C@@H]1COC2(CCCCCCCCCCC2)O1	-1%	·	-2%	?	?	0%	·	-3%
CCN(CC)CCCN=Cc1c(O)n(-c2cccc(C)c2)c(=O)c2ccccc12	0%	·	0%	·	·	-16%	·	0%
COC(=O)c1ccccc1NC(=O)Cn1nc(C(F)(F)F)c2c1CCC2	-34%	1.1%	7%	-21%	4%	?	-14%	4%
COc1ccc(OC)c2nc3c(cc12)CCC3	-3%	·	-4%	-19%	-14%	-7%	·	0%
CCOc1ccc2nc(Cl)sc2c1	·	·	-2%	10%[46.1 µM]	15%	-9%	·	-8%
Cc1ccc(NC(=S)NNC(=O)c2cn(C)nc2C)cc1	6%	3.1%	4%	9%	2%	18%	5%	-5%
O=C(CCn1c(=S)oc2ccccc21)NC1CCCCCC1	0%	·	1%	·	·	-1%	·	0%

The list goes on.
molecule	NS1 inh	Cruzain Triton	RE007 growth inh	MARV entry inh	Lassa entry inh	2A StopGo	Cruzain inh noDet	SARS PLpro yeast
N#Cc1c(N)c(C#N)c(-c2ccc(O)cc2)c2c1CCCC2	-19%	-9.0%	2%	15%	-2%	?	-8%	-4%
CC(C)CC(=O)Nc1c(C(=O)N2CCN(Cc3ccccc3)CC2)oc2ccccc12	-1%	·	-5%	-15%[46.1 µM]	-8%[46.1 µM]	68%[activator]	·	1%
O=C(c1cc(-c2cccnc2)nc2ccc(Cl)cc12)N1CCN(S(=O)(=O)c2cccs2)CC1	-10%	·	-5%	?	?	0%	·	1%
O=C(CN1CCN(c2ccccc2O)CC1)Nc1ccc(S(=O)(=O)N2CCCCCC2)cc1	·	·	-8%	-14%	-12%	?	·	1%
O=c1c2c3c(sc2n2cnnc2n1-c1ccccc1)N(Cc1ccccc1)CCC3	1%	-1.3%	-2%	9%	17%	-10%	1%	-2%
CCOc1ccc(NC(=O)CCC(=O)NNC(=O)Nc2ccc(Cl)cc2)cc1	-1%	·	-8%	12%[46.1 µM]	?	13%	·	1%
COc1cccc(NC(=S)N(CCCN2CCCC2)Cc2ccco2)c1	·	·	2%	?	26%[46.1 µM]	0%	·	3%

Screening results from PubChem BioAssay.
